Screening data as filed in PubChem BioAssay.
Sa ugtP lethal = growth inhibition of S. aureus ugtP deletion strain; AID 1259309; 0.54% of 330,000 active; S. aureus RN4220 ugtP deletion, OD600 growth, 16 h; some inactives read as strong as hits; growth inhibition, % (no concentration beside the values);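 active means z-score under -3 and OD600 up to 0.15 on both plates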;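 further: plate controls were untreated wells for no effect and antibiotic for full effect; wells of about 80 µL received 100 nL stock; the first replicate is given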
PrP 5UTR inh = suppresses PrP 5' UTR mRNA reporter expression. cell-based PrP 5' UTR mRNA reporter, plate reader. inhibition, % (test concentration not listed). 0.35% of 340,000 active;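 active means every replicate at 50% or more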;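 further: 0 = median of the neutral control wells; tested in H4 reporter cells; numbers are from one replicate; inactives centre near -14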
BJeLR viability = BJeLR cell viability loss; inhibition, % (no concentration beside the values); AID 1554; BJeLR (HRASV12) viability, CellTiter-Glo ATP luminescence, 48 h; reference of the scale not given here; 0.17% of 300,000 active;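 active means replicate mean above 50%; inconclusive means above 50% but judged a plate artefact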;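 further: 50 nL library stock added to about 25 µL; numbers are from one replicate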
Bead autofluor = compound fluorescence in toxin protease inhibitor counterscreen | compound autofluorescence counterscreen, microsphere flow cytometry; stronger effect = higher value | 3.1% of 360,000 active | fluorescence intensity (no concentration beside the values);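 active means at least 3 SD above the mean of all compounds, about 16000 in these data; inconclusive means too few beads counted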;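 further: 100 nL of 1 mM stock went into each well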
RN4220 kill = kills Staphylococcus aureus RN4220; 0.33% of 330,000 active; S. aureus RN4220 growth, OD600, 16 h; inhibition, % (no concentration beside the values); AID 1259311;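 active means z-score of -3 or lower and OD600 up to 0.18 on both plates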;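 further: plate controls were untreated cells for no effect and reference antibiotic for full effect; stock transfer was 100 nL into about 80 µL; one replicate is shown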
Mtb hypoxia inh = reduces hypoxia-regulated biosensor signal in M. tuberculosis. M. tuberculosis hypoxia-regulated fluorescent reporter, fluorescence. fluorescence inhibition, % (test concentration not listed). 0.1% of 300,000 active;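 active means 35 to 45% if threefold the growth effect, above 45% if 1.5-fold the growth effect; inactive means the rest, general growth blockers included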;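 further: wells of about 50 µL received 100 nL stock; 0% = vehicle wells and 100% = reference inhibitor wells; whole bacteria with a GFP reporter of the hypoxia response; strong numbers were not always called active; many hits fall short of the cut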
Mtb hypoxia inh growth = also measured in Mtb hypoxia inh; calls as there; growth inhibition, %; measured here: M. tuberculosis growth (absorbance);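 0% = vehicle and 100% = reference antibiotic; read after six days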
Active calls of the source: *; ? = inconclusive; . = no result given.

SMILES | Sa ugtP lethal | PrP 5UTR inh | BJeLR viability | Bead autofluor | RN4220 kill | Mtb hypoxia inh | Mtb hypoxia inh growth
COc1ccc(C2NC(c3ccc(OC)c(OC)c3OC)C(C)C(=O)C2C)c(OC)c1OC (configuration not stated) | 0 | -8 | -7 | 4335 | 4.1 | . | .
CCn1c(CSc2nc(C)cs2)nc2cc(S(=O)(=O)N(C)C)ccc21 | 0 | -3 | -2 | 3360 | 3.5 | 1 | 9
CCOCCCn1c(=S)[nH]c2cc(C(=O)N3CCN(C)CC3)ccc2c1=O | 6 | -23 | -5 | 9334 | 4.1 | 9 | -2
CCC(C)NC(=O)C1CCCN(S(=O)(=O)c2ccc3c(c2)CC(C)N3C(=O)C2CC2)C1 (configuration not stated) | 8 | -20 | 7 | 4231 | 2.2 | 8 | 6
C=CCn1cnc2c(c1=O)c1nc3ccccc3nc1n2-c1ccc(C)cc1 | -7 | . | 4 | . | 10 | -8 | 13
O=C(NC(NC(=S)Nc1ccccc1O)C(Cl)(Cl)Cl)c1ccco1 (configuration not stated) | 11 | -26 | -6 | 2705 | 3.6 | 7 | 3
CCCN1CCN(CCCNC(=O)Cn2nc(C)n3c(cc4cc(OC)ccc43)c2=O)CC1 | 1 | -1 | 13 | 5860 | 3.7 | 3 | -2
Cc1c(C)c2c(OCC(=O)N[C@@H](C)C(=O)O)cc3c(c2oc1=O)CCC(C)(C)O3 | 18 | -35 | 1 | 3455 | 0.2 | 7 | 7
CCCCC(CC)C(=O)Nc1cc(C(=O)NCCC)ccc1N1CCC2(CC1)CC(c1ccccc1)=NO2 (configuration not stated) | -7 | -3 | -1 | 3616 | 0.2 | -6 | 5
Cc1ccc(N2CCN(c3ccc(C)cc3)C2c2cccnc2)cc1 | 4 | -18 | 6 | 6797 | 4.1 | -3 | -11
CC(C)c1ccc(CNCCCSc2ncccn2)cc1 | 0 | -5 | -4 | 3927 | -1.0 | -1 | 4
C/C(=N\NC(=O)c1n[nH]c2c1CCC2)c1ccco1 | . | -16 | 5 | ? | . | . | .
CCOC(=O)c1sc2nc(CC(=O)OC)nc(N(C)CCc3ccccn3)c2c1C | 4 | -21 | -6 | 4023 | 2.2 | 3 | 2
CCOc1cc(/C=N/NC(=O)c2cccc(S(=O)(=O)N3CCOCC3)c2)ccc1OCC(=O)N(C)C | . | -22 | -5 | 4830 | . | . | .
COC(=O)C1CCN(c2cnccn2)CC1 | 3 | -9 | -2 | 4325 | 1.2 | 7 | 6
CCOC(=O)c1ccc(NC(C)=O)c([N+](=O)[O-])c1 | 0 | -10 | 0 | 5503 | 3.2 | 7 | 3
CC(=O)Nc1ccc(NC(=O)C2CC(=O)N(C(C)C)C2)cc1 (configuration not stated) | 9 | -17 | -4 | 3734 | 4.0 | 7 | 8
CC1=C(C)CC(C(=O)Nc2nc(C)cs2)C(C(=O)O)C1 (configuration not stated) | 5 | -22 | 2 | 3532 | 5.7 | . | .
COCCN(CCOC)C(=O)CCn1c(=O)oc2ccccc21 | 6 | -10 | -3 | 4262 | 3.1 | 10 | 6
COc1ccc(N2CC(C(=O)Nc3nnc(Cc4ccccc4)s3)CC2=O)cc1 (configuration not stated) | -1 | -21 | -5 | 4076 | -1.9 | 5 | -3
CSCCC(NC(=O)NCc1ccc(F)cc1)C(=O)O (configuration not stated) | -4 | . | . | . | 2.4 | 2 | 4
Cc1ccc(C2C(C(=O)c3cccs3)=C(O)C(=O)N2c2nnc(C)s2)cc1 (configuration not stated) | -3 | -33 | 5 | 4085 | 5.1 | -10 | 3
CC(C)NC(=O)N1CC(c2ccccc2)C(c2ccc(Cl)cc2)=N1 (configuration not stated) | 22 | 0 | -9 | . | -3.1 | 11 | 1
CCCc1cc(=O)[nH]c2nnc(SCC(=O)NCc3ccc4c(c3)OCO4)n12 | 1 | -11 | -3 | 6712 | 1.7 | -2 | 5
O=C(NNS(=O)(=O)c1ccccc1[N+](=O)[O-])c1ccc(F)cc1 | 4 | 3 | . | 4350 | 4.8 | 2 | -10
Other entries follow.
SMILES | Sa ugtP lethal | PrP 5UTR inh | BJeLR viability | Bead autofluor | RN4220 kill | Mtb hypoxia inh | Mtb hypoxia inh growth
Cc1ccc(Cn2c(=O)c3ccccc3n3c(SCC(=O)N4CCCCC4C)nnc23)cc1 (configuration not stated) | -2 | -7 | . | 19920* | -1.6 | -4 | 6
COc1cc2c(cc1NC(=O)C1CCCO1)oc1ccccc12 (configuration not stated) | 4 | -138 | . | 11455 | -0.2 | 4 | -4
CCOc1cc(NC(=S)NCc2ccco2)c(OCC)cc1NC(=O)CC(C)C | 5 | -14 | -4 | 2519 | 6.0 | 6 | 5
NC(=O)c1ccc(Oc2ccc(C(N)=O)cc2)cc1 | -4 | -5 | -10 | 3413 | -4.6 | 0 | 2
CC(CC1CC(COCC(C)C)OC1=O)=NNC(N)=S (configuration not stated) | 6 | . | . | . | 3.9 | 10 | -2
Cc1ccc(-n2c(-c3cc(-c4ccco4)[nH]n3)n[nH]c2=S)c(Br)c1 | 4 | -63 | 3 | 3483 | -0.9 | 13 | 9
N#Cc1c(C(F)(F)F)cc(-c2ccc(F)cc2)[nH]c1=O | 8 | -15 | -2 | 2548 | 19 | 9 | 9
Brc1ccc(C=NNc2ccc3ccccc3n2)cc1 | 4 | . | . | . | 0.0 | 8 | -7
CC(C)C(C(=O)Nc1nccs1)c1ccc(Cl)cc1 (configuration not stated) | 0 | -14 | 6 | 4180 | -5.6 | 0 | 1
CC1(c2nnc(-c3ccc(F)cc3)o2)CC(c2c(Cl)cccc2Cl)=NO1 (configuration not stated) | 12 | -3 | 5 | 4241 | 17 | 7 | 4
O=C(O)c1ccc(Cl)c(S(=O)(=O)NC(Cc2c[nH]c3ccccc23)C(=O)O)c1 (configuration not stated) | 5 | -24 | 8 | 3893 | 3.3 | 9 | 3
O=C(CCNS(=O)(=O)c1ccc(Cl)cc1)NCc1cccs1 | 2 | -9 | -3 | 3303 | -0.2 | 7 | -2
CN(C)C(CNC(=O)c1ccc2[nH]c(=O)c(=O)[nH]c2c1)c1ccco1 (configuration not stated) | 4 | -16 | . | ? | 3.2 | 6 | -2
Cc1nc(N2CCN(c3ccccc3O)CC2)c2c(-c3ccccc3)csc2n1 | -26 | -14 | 4 | 3382 | -0.5 | -3 | -6
CC(C)CCNC(=O)NC(=O)CSc1ncccn1 | 6 | -20 | -14 | 5991 | 4.1 | 4 | 5
O=C(CCC(=O)Nc1ccc(F)cc1)N/N=C/c1cccnc1 | . | -20 | 7 | 3943 | . | . | .
O=C(Cc1c(O)c2ccccc2oc1=O)c1ccc(C(F)(F)F)cc1 | 15 | -14 | 3 | 3891 | -1.4 | 13 | 7
CCc1cc2cc(C(=O)Nc3ccc(F)cc3)sc2s1 | -5 | -92 | 5 | 3819 | -0.7 | 13 | 15
CC1CCN(S(=O)(=O)c2ccc3c(c2)N(CC(=O)NCCCOC(C)C)C(=O)CS3)CC1 | 2 | -11 | -4 | 5303 | 1.4 | 14 | 0
Cc1cc(C)nc(NS(=O)(=O)c2ccc(NC(=O)C3(c4ccc([N+](=O)[O-])cc4)CCCC3)cc2)n1 | -2 | -24 | 15 | 2415 | 6.7 | 13 | 5
O=C(Cc1csc(N2CCOCC2)n1)N/N=C/c1ccc(O)c(O)c1O | . | -15 | 0 | 4253 | . | . | .
CCCCN(C(=O)c1ccc([N+](=O)[O-])s1)c1c(N)n(CC(C)C)c(=O)[nH]c1=O | 5 | -16 | 0 | 5865 | 6.4 | 9 | 0
CC(C)CC(=O)Nc1cccc(-c2cn3ccsc3n2)c1 | -9 | -19 | -3 | 2740 | 1.0 | . | .
Cc1ccc(NC(=O)c2cc(S(=O)(=O)c3ccccc3)ccc2Cl)cc1 | 26 | 2 | 2 | 2699 | 4.1 | 5 | 8
Cc1c(Cl)cccc1NC(=S)NCc1cccs1 | -13 | -21 | 1 | 2499 | -0.7 | 0 | 5
Remaining list, next part
SMILES | Sa ugtP lethal | PrP 5UTR inh | BJeLR viability | Bead autofluor | RN4220 kill | Mtb hypoxia inh | Mtb hypoxia inh growth
CC(=O)Nc1nc(-c2ccc3c(c2)CCO3)cs1 | 6 | -39 | -1 | 2391 | 2.9 | 16 | 4
S=C1NCCOCCOCCOCCNC(=S)NCCOCCOCCOCCN1 | -3 | -28 | 5 | 10867 | 6.0 | 11 | 8
CCN(CC)CCP(=O)(c1ccccc1)c1ccccc1 | 4 | 0 | 1 | 9468 | 3.6 | 2 | 1
O=C(NCc1cn2ccsc2n1)c1c(F)cccc1Cl | 0 | -12 | 0 | 4800 | -9.7 | -1 | 5
O=C(O)c1ccc(NC(=S)NC(=O)c2ccc(-c3ccccc3)cc2)cc1 | 46 | -12 | -3 | 4526 | 37 | 24 | 19
COc1ccc(-c2cc(C(=O)NCc3ccco3)c3ccccc3n2)c(OC)c1 | 6 | -31 | 1 | 5661 | 1.1 | 7 | 6
COc1ccc(C2CC(c3ccc(Br)cc3)Nc3nc(N)nn32)cc1 (configuration not stated) | 2 | -17 | -1 | 9332 | 5.2 | -3 | 9
O=C1CC(c2ccccc2)Cc2nc(N3CCc4ccccc4C3)ncc21 (configuration not stated) | 34 | 3 | 2 | 4477 | -6.9 | 5 | 1
COC(=O)c1ccc(CSc2nnnn2Cc2ccccc2)cc1 | 13 | -25 | -15 | 8307 | 8.6 | 6 | 4
COc1cc(C(C(=O)NC(C)(C)C)N(C(=O)CNC(=O)c2cccs2)c2cccnc2)cc(OC)c1OC (configuration not stated) | 7 | -19 | -4 | 2961 | 3.8 | 1 | -7
O=C(/C=C/c1ccc(F)cc1)NCCc1ccc2c(c1)OCCO2 | 12 | -15 | 7 | 10130 | -7.5 | 9 | 2
CS(=O)(=O)N1CCC(C(=O)Nc2ccc(F)c(Cl)c2)CC1 | 10 | -17 | -9 | 4188 | 1.7 | 16 | 6
Cc1ccccc1N1CCN(C2CCCN(C(=O)c3cn4c(C)cccc4n3)C2)CC1 (configuration not stated) | 7 | -21 | 8 | 3998 | 5.9 | -13 | -7
O=C(COC(=O)c1c(Cl)cccc1Cl)NC1CCCCCCC1 | 11 | -27 | . | 3613 | 11 | 12 | 8
Cc1ccc(C(=O)NCCC(=O)N2CCC3(CC2)NCCc2[nH]cnc23)cc1 | 4 | -6 | -10 | 5746 | 4.6 | 9 | 4
O=C1CS(=O)(=O)N(Cc2ccc(F)cc2)c2ccccc21 | -13 | -4 | . | 3702 | 5.7 | -8 | -1
CNC(=S)N1CCN(c2ccc(Cl)c(Cl)c2)CC1 | 4 | -14 | 6 | 4052 | 0.1 | 0 | -1
COc1ccc(C(CNC(=O)CCOc2ccccc2)N(C)C)cc1 (configuration not stated) | -5 | -11 | -8 | . | 0.1 | -6 | -5
CCC(=O)N1c2ccc(S(=O)(=O)NCc3ccccc3)cc2CC1C (configuration not stated) | 2 | -6 | 2 | 5531 | 7.2 | 6 | 4
Cc1ccc(OCCCC(=O)Nc2ccc(Br)cc2)cc1 | 7 | -21 | -2 | 2181 | -0.5 | . | .
CN(C)c1ccc(C(C(=O)NCC2CCCO2)N(C(=O)c2snc(C(N)=O)c2N)c2ccccc2)cc1 (configuration not stated) | . | -20 | 1 | 3400 | . | . | .
Cc1ccc(CCNC(=O)CN2CCN(Cc3ccccc3F)C2=O)cc1 | -1 | -23 | -1 | 2656 | 2.6 | . | .
CC(=O)c1ccccc1NC(=O)CCNC(=O)c1ccco1 | 4 | -4 | -10 | 3569 | 4.2 | 12 | 8

Sorted by heavy-atom count (descending): part of the list above
SMILES | Sa ugtP lethal | PrP 5UTR inh | BJeLR viability | Bead autofluor | RN4220 kill | Mtb hypoxia inh | Mtb hypoxia inh growth
Cc1ccccc1N1CCN(C2CCCN(C(=O)c3cn4c(C)cccc4n3)C2)CC1 (configuration not stated) | 7 | -21 | 8 | 3998 | 5.9 | -13 | -7
O=C(O)c1ccc(NC(=S)NC(=O)c2ccc(-c3ccccc3)cc2)cc1 | 46 | -12 | -3 | 4526 | 37 | 24 | 19
COc1ccc(C2CC(c3ccc(Br)cc3)Nc3nc(N)nn32)cc1 (configuration not stated) | 2 | -17 | -1 | 9332 | 5.2 | -3 | 9
CC(=O)c1ccccc1NC(=O)CCNC(=O)c1ccco1 | 4 | -4 | -10 | 3569 | 4.2 | 12 | 8
CCN(CC)CCP(=O)(c1ccccc1)c1ccccc1 | 4 | 0 | 1 | 9468 | 3.6 | 2 | 1
CNC(=S)N1CCN(c2ccc(Cl)c(Cl)c2)CC1 | 4 | -14 | 6 | 4052 | 0.1 | 0 | -1

The order is random (roughly 4% active in at least one column).
